VDR inh – Inhibitors of the vitamin D receptor (VDR): qHTS | Vitamin D3 receptor (Homo sapiens), P11473 | VDR-SRC2-3 peptide fluorescence polarization, 2 h | Potency, µM, without a hit: max response, negative = inhibition, usual class: inhibitors | hit rate 0.93% among 400,000 | AID 504847, 2011; active means well fitted inhibition curve with a large enough effect; inconclusive means small, poorly fitted or top-dose-only effect, or another doubt; inactive means no such curve, though single readings can be large or run the other way; further: series mostly up to about 120 µM
Target sequence (P11473 whole entry, looked up): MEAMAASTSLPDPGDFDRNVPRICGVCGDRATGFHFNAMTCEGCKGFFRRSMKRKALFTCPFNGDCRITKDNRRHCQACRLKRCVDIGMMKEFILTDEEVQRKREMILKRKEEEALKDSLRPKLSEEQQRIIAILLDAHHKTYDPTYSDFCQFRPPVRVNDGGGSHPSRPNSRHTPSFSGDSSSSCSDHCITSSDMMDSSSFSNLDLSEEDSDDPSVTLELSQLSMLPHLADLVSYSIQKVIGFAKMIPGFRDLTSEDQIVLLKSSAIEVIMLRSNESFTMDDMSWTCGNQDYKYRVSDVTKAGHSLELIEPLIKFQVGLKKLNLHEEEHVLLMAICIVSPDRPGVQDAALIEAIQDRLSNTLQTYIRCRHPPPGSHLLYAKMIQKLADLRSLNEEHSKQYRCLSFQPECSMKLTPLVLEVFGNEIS
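Two reagent solutions held at 4 deg C in the dark were dispensed, compounds pinned at 23 nl, and the mixture incubated 2 h at room temperature. Read-out: fluorescence polarization of VDR–SRC2-3 peptide binding.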
* hit, by the source's call; ? = inconclusive; & = joins results of further samples. On the % scale 0 is the no-effect control and ±100 the full control effect; potency means the concentration at half of the fitted maximal effect. Some of the compounds tested (hit frequency here may not be typical).

No.	mol	VDR inh
1	Cc1cccc(CN2C(=O)N/C(=C/c3ccc(C)s3)C2=O)c1	-14%
2	O=C(c1ccco1)N1N=C(c2ccccc2)CC1c1ccc2nccnc2c1 (stereo not given)	-8%
3	COc1ccc(S(=O)(=O)NC(C)C(=O)NCCN2CCOCC2)cc1Cl (stereo not given)	-19%
4	COc1ccccc1C(=O)NC(=O)COC(=O)c1ccco1	-1%
5	COc1ccc(CCNC(=O)C2CCN(C(=O)NC3CCCCC3)CC2)cc1	12%
6	O=C(NCCc1ccccc1)c1cccc(NC(=O)C2CCCCC2)c1	-11%
7	COc1ccccc1-c1noc(-c2ccc(N3CCN(C)CC3)c([N+](=O)[O-])c2)n1	-2%
8	O=C(NCc1ccc(OC(F)(F)F)cc1)C12CN(Cc3ccccc3)CC1C(c1cccc([N+](=O)[O-])c1)=NO2 (stereo not given)	-9%
9	CCNc1ccc([N+](=O)[O-])cc1	-1%
10	COc1ccc(NC(=O)COC(=O)COc2ccc(Br)cc2)cc1	0%
11	Fc1cccc(CSc2ccc(-c3ccco3)nn2)c1	-25%
12	CCOC(=O)c1[nH]c(=O)[nH]c1CNc1ccccc1C#N	-22%
13	COc1ccc(NC(=O)NC2CCN(C(C)C)CC2)c(OC)c1	0%
14	O=C(Nc1ccc(OC(F)F)c(Cl)c1)[C@@H]1CCCN1C(=O)c1cccs1	-11%
15	Cc1ccc(CNc2ncccc2-c2nc(-c3ccc(Cl)cc3)no2)cc1	2%
16	O=C(CCC(=O)c1ccccc1)Nc1ccc(C(=O)O)cc1	-10%
17	Cc1ccccc1N(CC(=O)NCc1ccco1)C(=O)CCC(=O)Nc1nccs1	4%
18	OCCNc1nc(N2CCN(c3ccccc3)CC2)nc2ccccc12	9%
19	COC(=O)[C@H](Cc1ccccc1)NC(=O)NCCc1ccccc1F	11%
20	COc1ccc([C@H]2CC(=O)C=C(/C=C/c3ccc(C(F)(F)F)cc3)C2)cc1	-12%
21	COc1ccc(N(C)S(=O)(=O)c2c(C)noc2C)c(OC)c1	12%
22	Cc1ccccc1NC(=O)CN1C(=O)NC2(CCCCCCC2)C1=O	?
23	CC1CCCC(C)N1CCCNC(=O)c1ccc2nc(N3CCCCC3)sc2c1 (stereo not given)	-9%
24	COc1ccc(NC(=O)CSc2nc(=O)n(CCN3CCOCC3)c3c2CCC3)cc1	4%
25	COc1ccc(NC(=O)Cn2c(=O)cnc3ccccc32)cc1S(=O)(=O)N1CCCCC1	-30%
26	CCn1c(-c2nn(-c3ccc(C)cc3)ccc2=O)n[nH]c1=S	-3%
27	Cn1c(=O)oc2cc(S(=O)(=O)NC(Cc3ccccc3)C(=O)NCc3ccc(F)cc3)ccc21 (stereo not given)	-1%
28	COc1cccc(NC(=O)Nc2nccc(C)n2)c1	6%
29	O=CN/N=C/c1c(O)ccc2ccccc12	20%
30	O=C(N/N=C/c1cccnc1)c1ccc([N+](=O)[O-])cc1	11%

Individual results from above.
Value of COc1ccc(CCNC(=O)C2CCN(C(=O)NC3CCCCC3)CC2)cc1 in VDR inh: 12%
Value of CCOC(=O)c1[nH]c(=O)[nH]c1CNc1ccccc1C#N in VDR inh: -22%

Further records.
No.	mol	VDR inh
31	Cc1cccc(C(CC(=O)NCCc2ccccc2)c2ccccc2)c1O (stereo not given)	2%
32	Cc1ccc(C)c(NC(=O)CN(C)C(=O)CSCc2c(C)noc2C)c1	-22%
33	COc1ccccc1N1CCN(C(=O)c2cccc(N3C(=O)C4C5C=CC(C5)C4C3=O)c2)CC1 (stereo not given)	10%
34	Cc1ccc(NC(=O)C2CCN(C(=O)c3cnn(-c4ccccc4)c3-n3cccc3)CC2)cc1Cl	2%
35	CCCS(=O)(=O)c1nc(S(=O)(=O)c2ccc(C)cc2)c(N2CCC(O)CC2)s1	-10%
36	Cn1c(=O)oc2cc(S(=O)(=O)NCCN3CCc4ccccc4C3)ccc21	-18%
37	Cc1cccnc1NC(=O)c1ccc(S(=O)(=O)N2CC(C)OC(C)C2)cc1 (stereo not given)	3%
38	C=CCOc1ccc(CNc2nn[nH]n2)cc1	-2%
39	COc1cccc(NC(=O)CN(C)CC(=O)NCc2ccco2)c1	3%
40	Cc1ccccc1N1CCN(C2CCCN(C(=O)CCN3CCCCC3=O)C2)CC1 (stereo not given)	-5%
41	Cc1cccc(Nc2ncc3c(n2)CC(c2ccco2)CC3=O)c1 (stereo not given)	10%
42	CC1CC(C)(C)CC2(C1)NC(=S)N(c1ccccc1)N2 (stereo not given)	?
43	CC1CN(C(=O)CS(=O)(=O)Cc2ccc(Cl)cc2)CC(C)O1 (stereo not given)	-5%
44	COc1ccccc1-n1cc(C(=O)NCC(=O)N2CCN(c3ccccc3)CC2)c2ccccc2c1=O	6%
45	CCOc1ccc(C(C(=O)NCC2CCCO2)N(C(=O)c2snc(C(N)=O)c2N)c2cccc(F)c2)cc1 (stereo not given)	-15%
46	COc1ccc(C(=O)COC(=O)c2cc(S(=O)(=O)NCc3ccccc3)ccc2O)cc1	-12%
47	CS(=O)(=O)Nc1ccc(C(=O)NC2CCCCC2)cc1	-16%
48	CCn1c(C)nnc1SCC(=O)Nc1nccs1	-9%
49	O=C(Cn1cnc2c(oc3ccccc32)c1=O)NCCc1ccccc1	5%
50	CC1=C(OC(=O)C(C)(C)C)C(C)(C)C(c2ccccc2)OC1=O (stereo not given)	-4%
51	Cc1cc(C)n2c(Nc3ccc4c(c3)OCCO4)c(-c3ccc(C)o3)nc2n1	-15%
52	Cc1cccc(OCc2nnc(SCC(=O)N3CCCCC3)o2)c1	-13%
53	O=C(NCCSCc1ccc(Cl)cc1)c1cccs1	0%
54	CCCCNC(=O)CSc1nnc(Cc2ccccc2)n1CC1CCCO1 (stereo not given)	0%
55	O=C1C=C(Nc2ccc(Cl)cc2)CC(c2ccccc2)C1 (stereo not given)	-4%
56	O=c1oc(=O)c2ccccc2c2ccccc12	-18%
57	Cc1ccc(S(=O)(=O)NCCNC(=O)c2ccc(C)nc2)cc1	5%
58	CCC(C(=O)NCC1CCCO1)N(C(=O)CNS(=O)(=O)c1ccccc1)c1ccc(F)cc1 (stereo not given)	-6%
59	CCOC(=O)C1CCN(C(c2ccc(C)cc2)c2c(O)cc(C)n(CCOC)c2=O)CC1 (stereo not given)	-3%
60	CCN(CC1COc2ccccc2O1)S(=O)(=O)c1ccc(C)cc1 (stereo not given)	-6%
61	CCN1C(=O)N(S(=O)(=O)C(F)(F)F)[C@@H](c2ccccc2)C(C(=O)OC)=C1C	-12%
62	CN(C)CCNC(=O)c1cccc(NS(=O)(=O)c2ccc(Cl)c(Cl)c2)c1	26%
63	O=C(COC(=O)c1cc(NS(=O)(=O)c2cccs2)ccc1O)Nc1ccccc1	6%
64	O=c1c2c(ncn1CCO)nc1n2CCC1	-12%
65	CC(C)c1c(O)nc(SCCN2CCOCC2)[nH]c1=O	3%
66	CC1(C)CC(=O)C2=C(C1)N(Cc1ccco1)C(=O)NC2(C(F)(F)F)C(F)(F)F	-8%
67	COc1cccc(-n2c(SCC(N)=O)nc3c([nH]c4ccccc43)c2=O)c1	20%
68	COc1ccccc1Nc1cc2cc(Br)ccc2c(=O)[nH]1	-2%
69	CCn1nc(CCC(=O)O)c2ccccc2c1=O	5%
70	Cc1ccccc1NC(=O)c1ccc(F)c(S(=O)(=O)N2CCCCC2)c1	4%
71	CCOC(=O)N1CCN(C(=O)c2ccc(NS(=O)(=O)c3ccc4[nH]c(=O)[nH]c4c3)cc2)CC1	-14%
72	c1ccc(N2CCN(CCCOc3ccc4c(c3)OCO4)CC2)cc1	9%&0%
73	O=C(NCC(c1cccnc1)N1CCN(c2ccc(F)cc2)CC1)c1ccc2c(c1)OCO2 (stereo not given)	15%
74	COc1ccccc1CCNC(=O)CN1C(=O)c2ccccc2S1(=O)=O	-6%
75	CCS(=O)(=O)c1ccc2oc(Nc3ccc(OC)cc3)nc2c1	-1%
76	CCC(=O)N1CCc2cc(CNC(=O)c3ccc(OC)cc3)ccc21	10%
77	CC(C)C[C@@H](CN)NC(=O)c1nc[nH]c1C(=O)N[C@@H](Cc1ccccc1)C(=O)CNC[C@H](C)NC(=O)c1nc[nH]c1C(=O)N[C@@H](CC(=O)O)C(=O)O	-15%
78	NC(=O)CSc1ncc2c(n1)-c1ccccc1N(Cc1ccc(Cl)cc1)S2(=O)=O	0%
79	COC(=O)c1nc2n(n1)C(c1cc(OC)ccc1OC)C(C(=O)OC1CCCCC1)=C(C)N2 (stereo not given)	-8%
80	CCCCn1c(N)c(N(CC(C)C)C(=O)C2CCN(S(=O)(=O)c3ccc(OCC)cc3)CC2)c(=O)[nH]c1=O	-18%
81	CC(CN1CCN(Cc2ccccc2)CC1)c1ccccc1 (stereo not given)	-2%
82	C=CCn1c(NCCO)nc2c1c(=O)n(C)c(=O)n2C	0%
83	COC(=O)COc1ccccc1C(N)=O	31%
84	COc1ccc(NC(=O)c2cccc(S(=O)(=O)N3CCN(C)CC3)c2)c(OC)c1	-4%
85	CCC1Sc2ccc(S(=O)(=O)CCC(=O)NCc3ccco3)cc2NC1=O (stereo not given)	-11%
86	COc1ccc(CCNC(=O)CCN2N=C(c3ccccc3)CCC2=O)cc1OC	15%
87	CCN1CCCC1Cn1cnc2c([nH]c3cccc(Cl)c32)c1=O (stereo not given)	-13%
88	COc1c2c(nc3ccccc13)OC(C(C)(O)COC(C)=O)C2 (stereo not given)	-4%
89	CCOC(=O)C1CCCN(C(=O)Cn2ncc3c(C)n(Cc4ccc(F)cc4)c(C)c3c2=O)C1 (stereo not given)	-11%
90	CN(C)C(=O)N1CCC(C(=O)NCc2ccc3c(c2)OCO3)CC1	-8%

In a second layout: entries from further up
68) COc1ccccc1Nc1cc2cc(Br)ccc2c(=O)[nH]1
- VDR inh = -2%

61) CCN1C(=O)N(S(=O)(=O)C(F)(F)F)[C@@H](c2ccccc2)C(C(=O)OC)=C1C
- VDR inh = -12%

77) CC(C)C[C@@H](CN)NC(=O)c1nc[nH]c1C(=O)N[C@@H](Cc1ccccc1)C(=O)CNC[C@H](C)NC(=O)c1nc[nH]c1C(=O)N[C@@H](CC(=O)O)C(=O)O
- VDR inh = -15%

75) CCS(=O)(=O)c1ccc2oc(Nc3ccc(OC)cc3)nc2c1
- VDR inh = -1%

Further structures.
No.	mol	VDR inh
91	Cc1ccc(CSCC(=O)Nc2cc(S(=O)(=O)N3CCOCC3)ccc2OC(C)C)cc1	-1%
92	Cc1cccc(C)c1NC(=O)C1CCCN(S(=O)(=O)c2c(C)noc2/C=C/N(C)C)C1 (stereo not given)	-8%
93	CCc1ccccc1NC(=O)c1ccc(-n2c(C)ccc2C)cc1	-1%
94	C=C1/C=C(\C)C(C)(O)CC(O)CC(=O)C(O)C(O)C(C)CC(C)OC(=O)/C(C)=C/CC/C=C/C(OC)C(O)CC(C)C1 (stereo not given)	-11%
95	COc1ccc(-c2cc(=Nc3c(C)n(C)n(-c4ccccc4)c3=O)c3ccccc3o2)cc1	-19%
96	O=C1C(Cc2ccccc2)Nc2ncnc(N3CCOCC3)c2N1Cc1ccccc1 (stereo not given)	-13%
97	O=C(Nc1ccc(OC(=O)c2ccco2)cc1)c1ccco1	11%
98	CCc1nnc(NC(=O)CSc2nnc3c(n2)[nH]c2ccccc23)s1	-12%
99	NC(=O)c1ccc[n+]([C@@H]2OC(COP(=O)([O-])OP(=O)(O)OCC3OC(n4cnc5c(N)ncnc54)C(O)C3O)C(O)C2O)c1 (stereo not given in full)	0%
100	Cc1c(Cl)cccc1NC(=O)CSc1nccn1C	-9%
101	CC(C)CN(CCNC(=O)c1cc(-c2ccc(Cl)s2)nc2ccccc12)CC(C)C	-15%
102	O=C(COC(=O)c1ccc(CNS(=O)(=O)c2ccc(F)c(Cl)c2)cc1)NCC1CCCCC1	?
103	Cc1ccc(OCc2nc3c4c(ncn3n2)-c2ccccc2CC42CCCC2)cc1	-22%
104	CN(C)C(=O)CSc1nnc(Cc2ccccc2)n1CC1CCCO1 (stereo not given)	-17%
105	O=C(Nc1ccc(Cl)cc1Cl)c1cccc(N2C(=O)C=CC2=O)c1	?
106	CCOC(=O)CC(=O)CSc1nc2ccccc2c(=O)n1CCc1ccc(S(N)(=O)=O)cc1	8%
107	CCN(Cc1ccccc1)Cc1c(O)ccc2c(=O)c(-c3ccccc3Cl)c(C(F)(F)F)oc12	24%
108	Cc1[nH]ccc(=O)c1OCc1c(F)cccc1Cl	-1%
109	COc1ccc(C2/C(=C(\O)c3ccc4c(c3)CC(C)O4)C(=O)C(=O)N2Cc2cccnc2)c(OC)c1 (stereo not given)	-2%
110	COc1cccc(/C(O)=C2\C(=O)C(=O)N(c3ccccn3)C2c2cccc(OC)c2OC)c1 (stereo not given)	9%
111	Cc1cc(C)c(NC(=O)c2sc3nc(C)cc(C)c3c2N)c(C)c1	7%
112	COc1ccccc1CNC(=O)C1CCN(S(=O)(=O)N2CCCCC2)CC1	10%
113	CCc1c(C(=O)NCc2cnn(C)c2)csc1C	-2%
114	Cc1cccc(C)c1NC(=O)CNC(=O)Cc1c[nH]c2ccccc12	-9%
115	CCOc1ccccc1N1CC(C(=O)NCCC2=CCCCC2)CC1=O (stereo not given)	8%
116	Cc1cc(=O)[nH]c2c1c(C)nn2C1CCCCC1	19%
117	CCCC(C(=O)NC(C)(C)C)N(Cc1ccccc1Cl)C(=O)c1snc(C(N)=O)c1N (stereo not given)	-18%
118	CCOCCn1c(N2CCN(c3ccc(OC)cc3)CC2)nc2c1c(=O)[nH]c(=O)n2C	12%
119	CCOc1ccc(C(=O)Nc2ccc3nc(Nc4cccc(C(F)(F)F)c4)cc(C)c3c2)cc1OCC	12%
120	O=C(CNC(=O)c1ccccc1)OCc1ccc([N+](=O)[O-])cc1	-23%
121	COc1cc(CSC)nc(-c2ccccc2)n1	3%
